Bioassay records deposited in PubChem by several laboratories.
H69AR inhibit = proliferation blockers of H69AR lung cancer cells, primary screen, cell-based, human, 86K library; H69AR lung tumor viability, ATP luminescence, 72 h; stronger effect = lower value; viability, % at 10 µM; actives 6% (n = 85,000); AID 598, 2007;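 active = viability at or below 40%; inactive = viability above 40%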;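 note: multidrug resistant small cell line overexpressing MRP-1 efflux transporter; 100% = mean luminescence of untreated control wells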
Fibroblast inh = antiproliferative effect on LL 47 fibroblasts – human, LL 47 cells, CellTiter-Glo luminescence, primary screen; LL 47 human lung fibroblast viability, ATP luminescence; stronger effect = lower value; viability, % at 10 µM; actives 1.1% (n = 85,000); AID 719, 2007;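 active = viability at or below 50% in the single dose screen; inactive = viability above 50%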;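 note: compound exposure lasted 72 h before the ATP readout; 100% = median luminescence of untreated cell-only wells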
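Test system: LL 47 human lung fibroblasts; Quantity: 1,150 cells/well; Buffer or medium: IMEM plus 15% FBS; Dosing: tenfold compound dosing solution, DMSO at 0.1%; Timing: overnight cell rest, 72 h compound treatment at 37 °C; Detection: ATP-based CellTiter-Glo luminescent readout; Read-out basis: viability percentage against median untreated-cell control; Controls: cell-only wells, no compound.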
ERa coact inh = ERα–SRC-1 coactivator interaction inhibitors, primary screen, biochemical, TR-FRET, ERα LBD, estradiol-bound. Estrogen receptor (Homo sapiens), P03372. TR-FRET ER-alpha LBD / SRC-1 peptide. inhibition, % at 25.6 µM. actives 1.7% (n = 86,000). AID 629, 2007; in the data active = inhibition above about 50%;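 note: 0% = receptor plus peptide control and 100% = peptide only without receptor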
Candida biofilm = clotrimazole potentiators killing Candida biofilms, primary screen, with clotrimazole, Alamar Blue | C. albicans biofilm + clotrimazole | inhibition, % at 6 µM | actives 0.14% (n = 85,000) | AID 834, 2007;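 active = inhibition above 20%; inactive = inhibition below 20%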;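 note: preformed 24 hr biofilms exposed to compound for 48 hr; 0% = biofilm without compound and 100% = blank killed by clotrimazole plus chlorhexidine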
ERa SRC1 pot = enhancers of ERα–SRC-1 coactivator binding, primary screen, biochemical, TR-FRET, ERα LBD, low estradiol. Estrogen receptor (Homo sapiens), P03372. TR-FRET ERalpha-LBD/SRC-Cy5 coactivator binding, 2 h; 100 = basal binding, no effect. coactivator binding (% of control), % at 25.6 µM. actives 1.3% (n = 86,000); in the data active = activity above about 200%;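 note: binding measured in presence of low estradiol as agonist stimulus; 0% = peptide alone without receptor and 100% = receptor with peptide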
HUVEC inhibit = inhibitors of HUVEC proliferation, primary screen, cell-based, 384-well. actives 1.1% (n = 86,000). CellTiter-Glo luminescence, 72 h; stronger effect = lower value. AID 648, 2007. viability, % at 10 µM (by protocol);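 active = viability at or below 30%; inactive = viability above 30%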;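 note: 100% = median luminescence of DMSO-only cell control wells on each plate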
Smad3 FoxH1 inh = Smad3/FoxH1 peptide binding inhibitors, primary screen, biochemical, TR-FRET | actives 0.29% (n = 88,000) | TR-FRET Smad3/Dy647-FoxH1 peptide binding, europium anti-His | Mothers against decapentaplegic homolog 3 (Homo sapiens), P84022 | inhibition, % at 25 µM;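 active = compounds that reduce the energy-transfer binding signal between the protein and its labelled peptide by more than half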;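 note: 0% = Smad3 plus labelled peptide maximal FRET and 100% = peptide-only background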
Target sequence (P84022 whole entry, looked up): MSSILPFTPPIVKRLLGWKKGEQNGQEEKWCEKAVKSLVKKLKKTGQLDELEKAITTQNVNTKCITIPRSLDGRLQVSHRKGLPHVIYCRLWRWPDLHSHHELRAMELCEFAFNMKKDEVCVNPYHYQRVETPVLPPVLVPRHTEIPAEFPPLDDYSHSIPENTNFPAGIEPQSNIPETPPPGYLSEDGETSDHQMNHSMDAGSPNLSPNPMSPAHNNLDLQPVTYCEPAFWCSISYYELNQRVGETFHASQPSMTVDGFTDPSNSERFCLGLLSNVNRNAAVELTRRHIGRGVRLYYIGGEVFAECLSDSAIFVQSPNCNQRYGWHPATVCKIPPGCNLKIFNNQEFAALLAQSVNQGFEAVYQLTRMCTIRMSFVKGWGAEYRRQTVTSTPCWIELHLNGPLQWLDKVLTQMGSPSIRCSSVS
ERb SRC1 inh = inhibitors of ERβ-SRC1 coactivator interaction, primary screen, biochemical, TR-FRET, ERβ LBD, SRC-1 peptide; TR-FRET ER-beta LBD / SRC1-Cy5 peptide binding; receptor agonist-loaded with 1 µM estradiol; inhibition, % at 25.6 µM; actives 1.3% (n = 86,000); AID 633, 2007;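 active = compounds whose percent inhibition of the receptor-coactivator binding signal exceeds about 50% in the single-dose screen, limit read from the data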;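 note: 0% = receptor plus peptide wells without compound and 100% = peptide-only wells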
Target sequence (Q92731 whole entry, looked up, the tested form may be a part): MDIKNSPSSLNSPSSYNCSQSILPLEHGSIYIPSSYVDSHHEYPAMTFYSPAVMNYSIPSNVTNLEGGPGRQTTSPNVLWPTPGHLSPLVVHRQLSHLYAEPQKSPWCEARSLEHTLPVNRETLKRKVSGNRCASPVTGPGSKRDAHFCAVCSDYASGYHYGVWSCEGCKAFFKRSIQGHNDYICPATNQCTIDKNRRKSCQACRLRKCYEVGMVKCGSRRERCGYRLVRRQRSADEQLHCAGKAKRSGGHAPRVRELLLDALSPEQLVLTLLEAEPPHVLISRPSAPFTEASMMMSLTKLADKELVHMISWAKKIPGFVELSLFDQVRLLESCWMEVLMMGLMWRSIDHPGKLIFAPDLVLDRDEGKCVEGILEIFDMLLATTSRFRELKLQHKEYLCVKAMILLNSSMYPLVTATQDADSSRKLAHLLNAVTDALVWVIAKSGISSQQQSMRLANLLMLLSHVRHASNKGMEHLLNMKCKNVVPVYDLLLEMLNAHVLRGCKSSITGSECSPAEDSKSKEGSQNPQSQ
* marks the source's active call; other numbers are inactive results; . = no result given; [ ] = dose if it differs, or a comment.

SMILES,H69AR inhibit,Fibroblast inh,ERa coact inh,Candida biofilm,ERa SRC1 pot,HUVEC inhibit,Smad3 FoxH1 inh,ERb SRC1 inh
COc1cc(-c2ccc(NC(=O)CN3CCCCC3)c(OC)c2)ccc1NC(=O)CN1CCCCC1,89,88,-18,0,97,84,2,-15
CCOC(=O)Cc1csc(NC(=O)c2ccc(Br)o2)n1,106,104,-2,-3,112,96,2,-5
O=C(CCn1nnc2ccccc2c1=O)N[C@@H](Cc1ccccc1)C(=O)O,86,97,-8,4,116,89,-1,-5
NC(=O)C(c1ccc(Sc2ccccc2)nn1)c1ccc(Cl)cc1Cl (configuration not stated),86,86,9,5,79,105,12,-9
Cc1cc(C(=O)NCCCn2ccnc2)sc1-c1ccccc1,102,95,-6,6,107,61,4[fluorescence artefact?],-6
CCCc1cc(C(N)=O)c(NC(C)=O)s1,40*,99,-8,7,146,85,-8,-2
CN(c1ccc(C(=O)Nc2ccc3c(c2)OCCO3)cc1)S(C)(=O)=O,83,104,9[fluorescence artefact?],-2,103,106,16,3
Cc1c(NC(=O)C2CCCCN2S(=O)(=O)c2ccc(Cl)cc2)c(=O)n(-c2ccccc2)n1C (configuration not stated),97,90,10,2,77,108,-5,31[fluorescence artefact?]
O=c1cc(O)nc(SCc2ccccc2Cl)[nH]1,92,97,4,13,100,90,6,8
COc1ccc(OC)c(CN(CCCN2CCOCC2)S(=O)(=O)c2ccc(NC(C)=O)cc2)c1,67,111,99*[fluorescence artefact?],6,123,95,10[fluorescence artefact?],-4
O=C(N/C=N/OCc1cccc(C(F)(F)F)c1)N1OC[C@@H]2COc3ccc4ccccc4c3[C@@H]21,102,99,9,5,99,106,-9,7
O=C(COc1ccc(-c2ccccc2)cc1)N1CCN(C(=O)c2cccnc2)CC1,51,85,21,-1,101[fluorescence artefact?],94,11,1
Cc1ccc(-c2cnc(NC(=O)CCC(=O)N(C)Cc3ccccc3)n2C)cc1,100,94,-3,3,96,96,8[fluorescence artefact?],-12
COC(=O)[C@@H](NC(=O)NC1CCCc2ccccc21)C(C)C (some centres not stated),95,94,4,.,128,89,-6[fluorescence artefact?],2
O=CN1CC(=O)N(c2ccccc2)c2c([nH]c3ccccc23)C1,82,98,1,9,102,94,-1,-3
COc1ccc(Cl)cc1N(CC(=O)Nc1ccccc1C(=O)NCc1ccco1)S(C)(=O)=O,78,94,-5,2,100,87,-4,15
CCn1c(COc2ccc(C)cc2)nnc1SCC(=O)Nc1ccc(S(N)(=O)=O)cc1,86,105,0,11,106,104,3,-8
CCN1CCN(c2cc(-c3ccccc3)nc3cc(-c4cccc(F)c4)nn23)CC1,41,90,-3,5,105,22*,1,-14
CCOc1ccccc1C(=O)N1CCOCC1,108,104,-6,1,109,99,-4,0
O=C(CSc1nnc2c3c4c(sc3ncn12)CCCC4)NCc1ccco1,28*,102,9[fluorescence artefact?],3,135[fluorescence artefact?],90,-8[fluorescence artefact?],11[fluorescence artefact?]
O=C(NC1CCCCCC1)C1CCN(S(=O)(=O)c2ccccc2)CC1,90,95,0[fluorescence artefact?],1,126,96,7,-7
CC1CCN(CCCNC(=O)CCCNC(=O)Cn2cnc3sc4c(c3c2=O)CCCC4)CC1,97,98,-4,7,103,96,19,-12
c1ccc(-c2cnc(-c3cccnc3)o2)cc1,99,88,-6,6,83,87,4,-6
COc1ccc(S(=O)(=O)N(CCCN2CCOCC2)Cc2cccc3ccccc23)cc1,87,94,-6,6,106,74,-10,-8
COc1cccc(OCC(=O)Nc2ccccc2C(N)=O)c1,86,111,8[fluorescence artefact?],-5,103[fluorescence artefact?],96,9,-7
O=C(CCSc1nc(-c2ccc3c(c2)OCO3)cc(C(F)(F)F)n1)NCc1ccco1,33*,100,15,-2,108[fluorescence artefact?],96,6,13
COc1ccc(C(C#N)Nc2ccccc2C)cc1 (configuration not stated),89,106,3,-1,105,101,-3,-2
O=C(Nc1ccccc1F)c1ccc(S(=O)(=O)NCC2CCCO2)cc1 (configuration not stated),95,106,11,9,115,114,-3,9[fluorescence artefact?]
Cc1cccc(-n2nnc(C(=O)N3CCc4ccccc4C3)c2N)c1,90,103,-8,10,112,101,3[fluorescence artefact?],0
CCOC(=O)N1CCN(C(=O)CN(c2ccc(C)cc2)S(=O)(=O)c2c(C)noc2C)CC1,88,90,-43[fluorescence artefact?],5,125,93,6,1
CCC(=O)Nc1ccc(S(=O)(=O)N2CCCCC2)cc1OC,101,107,-1,0,100,101,6,2
Cc1ccc(CNC(=O)C2CCN(S(=O)(=O)c3cccs3)CC2)o1,97,93,14,3,116,91,12,6
COC(=O)c1ccc(NC(=O)C2CCN(S(C)(=O)=O)CC2)cc1,93,95,-9,-1,115,107,-4,-11
O=C(C1COc2ccccc2O1)N1CCCC1 (configuration not stated),104,116,2,2,122,104,-10,26
NC(=O)c1cc(-c2ccccc2)sc1NC(=O)Cc1ccc(S(=O)(=O)N2CCOCC2)s1,54,77,13,5,77,58,-3,14[fluorescence artefact?]
O=C(NCc1ccc2c(c1)OCO2)c1ccc(S(=O)(=O)NCC2CCCO2)cc1 (configuration not stated),122,101,1,3,113,108,3,8
COc1ccc(N(CC(=O)N2CCN(c3ccccc3)CC2)S(=O)(=O)c2c(C)noc2C)cc1,64,92,-1,5,102,87,-3,-9
Cn1c(=O)c2c(nc(-n3ccnc3)n2Cc2ccc(Cl)cc2Cl)n(C)c1=O,81,92,-7,4,90,89,1,-9
CC(=O)Nc1ccc(NC(=O)C2CCCN(c3ncccn3)C2)cc1 (configuration not stated),96,98,-9,7,88,95,-7,-3
O=C(NC12CC3CC(CC(C3)C1)C2)N1CCN(c2nc(-c3ccccc3)cs2)CC1,64,100,-6,10,111[fluorescence artefact?],92,-9,-9
O=c1cc(CN2CCN(c3ccccc3)CC2)c2c(ccc3ccccc32)o1,93,99,2,2,131,101,-1,2
CC(=O)c1c(C)[nH]c(C(=O)COC(=O)CN(C)S(=O)(=O)c2ccc(Cl)cc2)c1C,60,105,4,3,96,96,1,8
O=C(Nc1ccc(F)cc1)c1ccc(S(=O)(=O)NCC2CCCO2)cc1 (configuration not stated),97,100,14,7,81[fluorescence artefact?],106,0,9
Cc1cc(NS(=O)(=O)c2ccc(NC(=O)CCCOc3ccccc3)cc2)no1,85,98,1,0,94,102,-14,2
O=C(CN1C(=O)c2ccccc2C1=O)Nc1ccc(S(=O)(=O)NCC2CCCO2)cc1 (configuration not stated),95,100,-1,4,91,102,11,-2
COc1ccccc1-n1c(-c2ccc(NS(C)(=O)=O)cc2)n[nH]c1=S,99,99,13[fluorescence artefact?],2,102,92,9,7[fluorescence artefact?]
COCCNc1nnc(SCC(=O)c2ccc3c(c2)OCO3)s1,100,98,2,5,98,99,5,-4
CCOC(=O)Cn1c(C)cc(=O)c2cccc(C)c21,105,104,-4,6,115,96,0,-8
CCCCn1nnnc1NCc1cccnc1,98,88,-37,5,113,94,10,-29
CC(C)(C)NC(=O)CN(C(=O)CCN1CCCc2ccccc21)C(C)(C)C,86,82,-2,6,105,89,13[fluorescence artefact?],0
O=C(NC1CCCCC1)C1CC(=O)N(CCc2ccccc2)C1 (configuration not stated),104,101,-1,5,112,97,-5,-6
Cc1ccc2nc(-c3ccc(SCC(=O)Nc4cc(C)on4)nc3)[nH]c2c1,11*,104,39[fluorescence artefact?],5,178,92,9,34[fluorescence artefact?]
COc1cc(S(=O)(=O)N2CCCCC2)ccc1NC(=O)c1ccc(F)cc1,84,89,-1,-1,125,90,-3,3
COc1ccc(C2CC2/C(C)=N/OC(=O)c2cccs2)cc1 (configuration not stated),93,95,5[fluorescence artefact?],8,103[fluorescence artefact?],89,5,0[fluorescence artefact?]
COc1ccc(CNC(=O)C2CCCN(c3nccc(C)n3)C2)cc1 (configuration not stated),96,110,-4,5,111,99,2,-9
CCn1c(CCNC(=O)c2ccc(Cl)cc2)nnc1SCC(=O)NC1CCCC1,90,109,3,1,101,106,-8,6
COC(=O)Nc1ccc(S(=O)(=O)N2CCCCCC2)cc1,75,90,-6,7,108,80,1,-4
Cc1ccc(NC(=O)C(=O)NC2CCCCC2)cc1,79,98,8[fluorescence artefact?],2,116[fluorescence artefact?],96,2,1[fluorescence artefact?]
O=C(CSc1nnc2c(Cl)cc(C(F)(F)F)cn12)Nc1ccc2c(c1)OCO2,89,101,-8,2,119[fluorescence artefact?],82,5,-4

Entries above that have a thiophene ring, fused or not (7):
SMILES,H69AR inhibit,Fibroblast inh,ERa coact inh,Candida biofilm,ERa SRC1 pot,HUVEC inhibit,Smad3 FoxH1 inh,ERb SRC1 inh
Cc1cc(C(=O)NCCCn2ccnc2)sc1-c1ccccc1,102,95,-6,6,107,61,4[fluorescence artefact?],-6
CCCc1cc(C(N)=O)c(NC(C)=O)s1,40*,99,-8,7,146,85,-8,-2
O=C(CSc1nnc2c3c4c(sc3ncn12)CCCC4)NCc1ccco1,28*,102,9[fluorescence artefact?],3,135[fluorescence artefact?],90,-8[fluorescence artefact?],11[fluorescence artefact?]
CC1CCN(CCCNC(=O)CCCNC(=O)Cn2cnc3sc4c(c3c2=O)CCCC4)CC1,97,98,-4,7,103,96,19,-12
Cc1ccc(CNC(=O)C2CCN(S(=O)(=O)c3cccs3)CC2)o1,97,93,14,3,116,91,12,6
NC(=O)c1cc(-c2ccccc2)sc1NC(=O)Cc1ccc(S(=O)(=O)N2CCOCC2)s1,54,77,13,5,77,58,-3,14[fluorescence artefact?]
COc1ccc(C2CC2/C(C)=N/OC(=O)c2cccs2)cc1 (configuration not stated),93,95,5[fluorescence artefact?],8,103[fluorescence artefact?],89,5,0[fluorescence artefact?]

The list is partial; count on the stated rates, not on these rows.
